# Vaccinia Venus – inhibitors of vaccinia virus (Venus reporter). Potency, µM (titrated, usually from 36.5 µM), for the others: at the highest dose activity change, negative = inhibition, actives largely listed as inhibitors. AID 720580. Vaccinia virus Venus reporter expression, fluorescence. 330,000 tested, 0.46% active; active means well fitted inhibition curve with a large enough effect; inconclusive means small, poorly fitted or top-dose-only effect; inactive means no such curve, though single readings can be large or run the other way; tested in A549 cells; note: nearly all actives have a fitted effect of over 30% in size; inactives centre near -10
# VACV mCherry inh – inhibitors of vaccinia virus infection (mCherry reporter signal). Vaccinia virus mCherry reporter infection, fluorescence; about a quarter of the inactives have no number. Potency, µM (doses to about 36.5 µM), inactives show at the top dose activity change, negative = inhibition, most hits filed as inhibitors. 310,000 tested, 0.63% active; active = well fitted inhibition curve with a large enough effect; inconclusive = small, poorly fitted or top-dose-only effect; inactive = no such curve, though single readings can be large or run the other way; tested in A549 cells; note: nearly all actives have a fitted effect of over 35% in size; inactives centre near -10
# * marks the source's active call; other numbers are inactive results; i = inactive; ? = inconclusive; . = not tested or not shown; & = joins results of further samples; [ ] = dose if it differs, or a comment. % is set by controls: 0 for no effect and ±100 for the full control effect; potency is the fitted concentration of half-maximal effect.
SMILES,Vaccinia Venus,VACV mCherry inh
CC(=O)Nc1cccc(C(=O)N(CCc2ccccc2)Cc2ccccc2)c1,-12%,-22%
O=C(N[C@H]1C/C=C\C[C@@H](CC(=O)N(CCO)Cc2ccccc2)C(=O)NC[C@H](c2ccccc2)OC1=O)OCC1c2ccccc2-c2ccccc21,?,10µM*
COc1ccc(S(=O)(=O)NCC(c2ccco2)S(=O)(=O)c2cccs2)cc1C (stereo not drawn),-7%,-14%
COc1ccc2sc(N(CCCN(C)C)C(=O)c3ccc(S(=O)(=O)N(C)Cc4ccccc4)cc3)nc2c1,-27%,?
Cc1c(N=C(N)/N=C(\N)Nc2ccccc2)c(=O)n(-c2ccccc2)n1C,6%,-13%
O=C(COC(=O)CNC(=O)c1ccccc1F)Nc1cccnc1Cl,-3%,0%
CCOc1ccc(CNCc2c(C(=O)O)n(Cc3ccc(OC)cc3)c3ccccc23)cc1,-16%,-11%
CC(=O)Nc1cccc(NC(=O)CSc2nnc(Cc3cccn3C)n2CCc2ccccc2)c1,-8%,-18%
CN(C(=O)c1cccc(NC(=O)Cc2ccc(NC(=O)C3CCN(C(=O)c4ccccc4)CC3)cc2)c1)C1CCC1,-16%,i
CC(C)(C)C1CCC(OC(=O)c2ccncc2)CC1 (stereo not drawn),-15%,.
COc1ccc(Cl)cc1N(CC(=O)Nc1ccccc1C(=O)N1CCOCC1)S(C)(=O)=O,-11%,-2%
CC(C)(C)OC(=O)N1CCC(c2c(C(=O)NCc3ccccn3)cnn2-c2ccc(F)cc2)CC1,2%,-14%
COc1ccc(C(=O)NCc2nnc(SCC(=O)Nc3nc4ccc(C)cc4s3)o2)cc1OC,-10%,-15%
CCOC(=O)C1=C(CC)Nc2ccccc2N=C1N,-3%,-3%
O=C(CNC(=O)C1CCCCC1)OCc1cc(=O)oc2ccc3ccccc3c12,1%,-11%
CCOc1ccc(C(=O)NC2CCN(CC(=O)NCc3ccccc3)CC2)cc1,-5%,-14%
CC(=O)Nc1cccc(-c2ccnc3c2CC(C)(C(=O)NCCC(F)(F)F)O3)c1 (stereo not drawn),?,-18%
CCOC(=O)CCCSc1nnc(CCCCCN2C(=O)c3cccc4cccc(c34)C2=O)o1,-7%,-16%
COc1cc([N+](=O)[O-])c2nc(C)ccc2c1[N+](=O)[O-],-21%,-8%
Cc1cc2c(C)nc(N/N=C/c3ccccc3)nc2o1,-15%,-18%
O=C(N/N=C/C=C/c1ccccc1)c1n[nH]c2c1CCC2,?,?
Cc1ccc2nc(SCC(=O)Nc3ccccc3F)nc(=O)n2c1,-9%,-1%
CCCCc1ccc(-c2nn[nH]n2)nc1,-16%,i
Cc1cc(C)c(S(=O)(=O)N2CCCOC2CNC(=O)C(=O)NCc2cccs2)c(C)c1 (stereo not drawn),-8%,-24%
Cc1ccc(CNC(=O)C2CCC(=O)N(CCc3cccc(F)c3)C2)cc1 (stereo not drawn),-14%,i
CNC[C@H]1OCc2ccccc2-c2ccccc2C(=O)N([C@H](C)CO)C[C@H]1C,-16%,-23%
CCOC(=O)N1CCc2c(sc3c2c(=O)n(-c2ccc(Cl)cc2)c(=O)n3Cc2cccc(C)c2)C1,-16%,-23%
Cc1ccc(NC(=S)NC2CCN(Cc3ccccc3)CC2)cc1,-18%,-30%
CC(C)CNC(=O)c1oc2ccccc2c1COc1ccccc1,4%,-12%
CC(C)N(C)c1ncnc2c1ncn2[C@H]1CN(Cc2ccc3c(c2)OCO3)C[C@@H](CO)O1,-4%,-6%
Cc1ccc(NC(=O)c2ccc3c(c2)OCCO3)nc1,-13%,-14%
O=C1c2ccsc2SCCN1Cc1c(Cl)cccc1Cl,-15%,.
COc1cc(N)c(Cl)cc1C(=O)OCC(=O)N1c2ccccc2NC(=O)C1(C)C,-4%,-24%
Cc1cccc(C)c1NC(=O)c1cccc(COc2cc(Cl)ccc2Cl)c1,-11%,-12%
Cc1ccccc1OCCn1cc(/C=C(\C#N)C(=O)NCc2ccco2)c2ccccc21,-15%,i
Cc1nc2ccc(N)nc2nc1C,-7%,i
O=C(CSc1nnc(-c2cccnc2)n1-c1ccccc1)N1CCN(c2ccc(F)cc2)CC1,1%,-9%
COc1ccc(CNC(=O)[C@@H]2CC=C[C@@H]3CCN(Cc4ccc(Cl)c(Cl)c4)C(=O)[C@@H]32)cc1,-29%&-20%,?
CCNC(=O)CC1SC(=Nc2ccc(C)cc2)NC1=O (stereo not drawn),-3%,-16%
O=C(Nc1cccc(Br)c1)c1cccc(OC(=S)N2CCOCC2)c1,-25%,-16%
Cc1cccc(-c2nnc(SCc3ccccc3)o2)c1,0%,-11%
O=C(O)c1cc(C(F)(F)F)nc2ccccc12,-6%,-12%
COC(=O)[C@@H](Cc1c[nH]c2ccccc12)NC(=O)CNC(=O)c1ccccc1OC,-5%,4%
CCOc1ccc(-c2nnc3ccc(SCC(=O)Nc4cc(C)on4)nn23)cc1,-6%,i
CCC(C)(C)c1ccc(OCCCC[n+]2cccc(C)c2)c(C(C)(C)CC)c1,?,?
O=C(O)C1Cc2c([nH]c3ccccc23)C(c2ccc3c(c2)OCO3)N1 (stereo not drawn),-6%,-14%
CCOC(=O)CN1C(=O)C(Sc2n[nH]c(-c3ccc(O)cc3)n2)CCc2ccccc21 (stereo not drawn),-27%,.
Cc1ccc(CS(=O)(=O)CC(C)(O)c2ccc(Cl)cc2)cc1 (stereo not drawn),-30%,-4%
O=C(O)CC1(CC(=O)Nc2ccc3ccccc3n2)CCCCC1,-4%[7.34 µM],i[7.34 µM]
CC(=O)NC(Cc1ccc(N(CCCl)CCCl)cc1)C(=O)NCC(=O)NCC(=O)O (stereo not drawn),-3%,5%
# The results go on:
SMILES,Vaccinia Venus,VACV mCherry inh
COc1ccc(Br)cc1CN(C)CC(=O)Nc1cccc(S(N)(=O)=O)c1,-16%,-21%
COC(=O)c1ccccc1NC(=O)C(=O)NCC1CCCO1 (stereo not drawn),-15%,-12%
CCOC1OC(=O)C(Cl)=C1Nc1cc(C)ccc1C (stereo not drawn),4%,-10%
COC(=O)c1ccccc1NC(=O)Cn1c(=O)n(-c2ccc(C)cc2)c(=O)c2ccccc21,-25%,?
COc1ccc(OC)c(CNC(=O)c2cc3ccc4cccnc4c3[nH]2)c1,-7%,-20%
COc1ccc(CCC(=O)O)cc1,-11%,i
COc1cccc(-n2nnc3c(=O)n(CC(=O)N4CCC(Cc5ccccc5)CC4)cnc32)c1,0%,-11%
Cc1ccc(S(=O)(=O)N2CCCCC2C(=O)NCc2ccco2)cc1 (stereo not drawn),-1%,-13%
CN(C)c1cccc2c(S(=O)(=O)Nc3ccccn3)cccc12,-19%,-14%
O=C(N/N=C/c1ccc(F)cc1)c1cc(-c2ccco2)nc2ccccc12,?,?
Cc1ccc(S(=O)(=O)NCCc2cc3ccc(C)cc3[nH]c2=O)cc1,-11%,-20%
CCCC(=O)NC(Oc1ccc(C(C)=O)cc1)C(Cl)(Cl)Cl (stereo not drawn),-12%,i
CCN(CCCNC(=O)C1CCCN(S(=O)(=O)CC)C1)c1cccc(C)c1 (stereo not drawn),-18%,.
CCOc1ccc(NC(=O)CSc2nccn2Cc2ccco2)cc1,-1%,-6%
COc1ccccc1-c1ccc(SCC(=O)N2CCOCC2)nn1,24%,-4%
Cc1ccc(S(C)(=O)=O)cc1C(=O)OCC(=O)N1CCCC1=O,-8%,-13%
CCOC(=O)c1[nH]c(C)c(C(=O)OCC(=O)N(CC)C2CCS(=O)(=O)C2)c1C (stereo not drawn),-5%,.
CC(=O)CC1OC(=O)C(Br)=C1NCc1ccccc1 (stereo not drawn),-8%,i
C[C@@H]1ON(C)[C@H]2C[C@H]3c4[nH]c5ccccc5c4CCN3C[C@@H]12,-5%,-12%
COc1ccc(Cn2c(=S)[nH]c3cc(C(=O)N4CCN(c5ccccc5)CC4)ccc3c2=O)cc1,-5%,-8%

# Fetched by structure from the list above:
SMILES,Vaccinia Venus,VACV mCherry inh
CCOC(=O)c1[nH]c(C)c(C(=O)OCC(=O)N(CC)C2CCS(=O)(=O)C2)c1C (stereo not drawn),-5%,.
CCN(CCCNC(=O)C1CCCN(S(=O)(=O)CC)C1)c1cccc(C)c1 (stereo not drawn),-18%,.

# Later entries:
SMILES,Vaccinia Venus,VACV mCherry inh
COc1cccc(CNC(=O)C2CCC(CNc3nc(=S)[nH]c4ccccc34)CC2)c1 (stereo not drawn),-10%,-25%
CC(C)(C)OC(=O)N1CCC(NC(=O)c2ncn(Cc3ccccc3)c2C(=O)NC2CCN(C(=O)OC(C)(C)C)CC2)CC1,-29%,i
CC(=O)Nc1ccc(/C(C)=N/NC(=O)CN(c2ccccc2Br)S(C)(=O)=O)cc1,-5%,0%
COc1ccccc1CC(=O)NNC(=O)CN(C)S(=O)(=O)c1ccc(Cl)cc1,-24%,-1%
Cc1cc(F)ccc1S(=O)(=O)Nc1ncnc2sccc12,0%,3%
Cc1cc(/C=C/c2c(C)cnc3ccccc23)ccc1N(C)C,-20%,-21%
O=C(c1cc2n(n1)C(C(F)(F)F)CC(c1ccco1)N2)N1CCN(c2ccccn2)CC1 (stereo not drawn),-26%,.
CN(Cc1ccccn1)Cc1cn(Cc2ccccc2)nc1-c1ccc2c(c1)OCO2,-1%,-8%
COc1ccc(C(=O)NC(=S)Nc2ccc(NC(=O)c3ccco3)cc2)cc1[N+](=O)[O-],-16%,-4%
COc1ccc(/C=C/C(=O)OCC(=O)NC2CCCCCCC2)cc1,-4%,-11%
Cc1ccc(S(=O)(=O)N2Cc3cc(-c4ccccc4)ccc3-n3nncc3C2)cc1,-10%,i
COc1ccc(OCc2cccc(C(=O)N3CCCC3)c2)cc1,-15%,i
COc1ccc(CNC(=O)c2ccc(CSc3nc4ccncc4n3Cc3ccccc3F)cc2)cc1,-15%,-16%
Cc1cc(C(=O)Cn2cnc3cc([N+](=O)[O-])ccc3c2=O)c(C)n1CC1CCCO1 (stereo not drawn),-5%,-5%
Cc1cccc(NC(=O)CN2C(=O)CCc3ccccc32)c1C,-8%,-9%
O=C(NCC(=O)N(Cc1ccccc1)C(C(=O)NC1CCCCC1)c1ccco1)c1ccco1 (stereo not drawn),2%,-10%
CN1C(=O)/C(=C/c2ccc(Cl)s2)C(=O)NC1=S,18%,-15%
O=C(Nc1cccc2ccccc12)c1onc2c1CCCC2,-18%,.
O=C(Nc1cnccn1)Nc1ccccc1F,1%,-8%
O=[N+]([O-])c1ccc(NC(=S)N2CCOCC2)cc1,-1%,-11%
CC(=O)c1cccc(NC(=O)c2ccco2)c1,-9%,.
COc1ccc(N(CC(=O)NCCSc2ccccn2)S(C)(=O)=O)cc1Cl,-6%,-10%
CC(NC(=O)CNC(=O)c1ccco1)c1ccc(S(N)(=O)=O)cc1 (stereo not drawn),-5%,-10%
COc1ccc(NC(=O)c2cccc(N3C(=O)C4C5C=CC(C5)C4C3=O)c2)cc1 (stereo not drawn),-18%,-2%
CCOC(=O)c1c(C)[nH]c(C(=O)N2CCN(c3ccc(OC)cc3)CC2)c1C,-18%,?
CC1CC(C)C(=NNC(N)=O)C(C(O)CC2CCC(=O)NC2=O)C1 (stereo not drawn),7.9µM*,?
COc1ccc(OC)c(NC(=O)C2CCN(S(=O)(=O)c3cccs3)CC2)c1,-6%,-6%
Cc1ccccc1-n1nnnc1SCC(N)=O,-4%,.
CC(=O)c1ccc(NC(=O)Nc2ccc(S(=O)(=O)N3CCCC3)cc2)cc1,-30%,-19%
CCN(c1ccccc1)S(=O)(=O)c1ccc(OCC(=O)Nc2cc(C)on2)cc1,-17%,-15%[1.46 µM]
O=C(NCCc1ccncc1)Nc1ccc(F)cc1,-3%,i
CCOC(=O)[C@]1(C#N)[C@@H]2C=CC(C(C)=O)=CN2[C@@H](C(N)=O)[C@@H]1c1ccsc1,1%,.
CCOC(=O)CSC1=C(C#N)C(c2ccc(OC)cc2)C2=C(CC(C)(C)CC2=O)N1 (stereo not drawn),-6%,-10%
C=CCc1ccc(OCCOCCOc2ccc(C)cc2[N+](=O)[O-])c(OC)c1,-35%,.
CCn1c(SCC(=O)Nc2cccc(OC)c2)nc2c(c1=O)SCC2,-17%,i

# Exported with tabs: entries from further up
SMILES	Vaccinia Venus	VACV mCherry inh
O=C(NCC(=O)N(Cc1ccccc1)C(C(=O)NC1CCCCC1)c1ccco1)c1ccco1 (stereo not drawn)	2%	-10%
CN1C(=O)/C(=C/c2ccc(Cl)s2)C(=O)NC1=S	18%	-15%
O=C(Nc1cccc2ccccc12)c1onc2c1CCCC2	-18%	.
O=C(Nc1cnccn1)Nc1ccccc1F	1%	-8%
O=[N+]([O-])c1ccc(NC(=S)N2CCOCC2)cc1	-1%	-11%
CC(=O)c1cccc(NC(=O)c2ccco2)c1	-9%	.
COc1ccc(N(CC(=O)NCCSc2ccccn2)S(C)(=O)=O)cc1Cl	-6%	-10%
CC(NC(=O)CNC(=O)c1ccco1)c1ccc(S(N)(=O)=O)cc1 (stereo not drawn)	-5%	-10%
COc1ccc(NC(=O)c2cccc(N3C(=O)C4C5C=CC(C5)C4C3=O)c2)cc1 (stereo not drawn)	-18%	-2%
CCOC(=O)c1c(C)[nH]c(C(=O)N2CCN(c3ccc(OC)cc3)CC2)c1C	-18%	?
CC1CC(C)C(=NNC(N)=O)C(C(O)CC2CCC(=O)NC2=O)C1 (stereo not drawn)	7.9µM*	?
COc1ccc(OC)c(NC(=O)C2CCN(S(=O)(=O)c3cccs3)CC2)c1	-6%	-6%
Cc1ccccc1-n1nnnc1SCC(N)=O	-4%	.
CC(=O)c1ccc(NC(=O)Nc2ccc(S(=O)(=O)N3CCCC3)cc2)cc1	-30%	-19%
CCN(c1ccccc1)S(=O)(=O)c1ccc(OCC(=O)Nc2cc(C)on2)cc1	-17%	-15%[1.46 µM]
O=C(NCCc1ccncc1)Nc1ccc(F)cc1	-3%	i
CCOC(=O)[C@]1(C#N)[C@@H]2C=CC(C(C)=O)=CN2[C@@H](C(N)=O)[C@@H]1c1ccsc1	1%	.

# Screening results as filed in PubChem.
